High-throughput results (PubChem BioAssay)
PRMT1 inh – PRMT1 (human) inhibition, primary screen. Q99873. 370,000 tested, 1.3% active. recombinant PRMT1, activity-based probe fluorescence polarization. AID 652257. inhibition, % at 2.79 µM;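 active means inhibition above about 21% made by adding two undisclosed values, limit read from the data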
Target sequence (Q99873 whole entry, looked up): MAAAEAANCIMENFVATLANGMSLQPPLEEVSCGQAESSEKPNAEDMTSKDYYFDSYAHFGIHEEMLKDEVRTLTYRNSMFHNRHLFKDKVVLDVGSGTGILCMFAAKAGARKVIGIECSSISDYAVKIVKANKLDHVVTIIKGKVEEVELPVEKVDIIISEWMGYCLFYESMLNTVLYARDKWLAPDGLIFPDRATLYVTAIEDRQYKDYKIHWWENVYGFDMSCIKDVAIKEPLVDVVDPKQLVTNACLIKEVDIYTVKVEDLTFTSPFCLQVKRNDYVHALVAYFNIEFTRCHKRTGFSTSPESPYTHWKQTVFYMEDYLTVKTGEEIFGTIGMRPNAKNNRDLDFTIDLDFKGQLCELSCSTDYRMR
TCR-CD3 inh – blocks the human TCR-CD3 interaction | TAMRA-labeled TCR probe fluorescence, biochemical | inhibition, % at 9.4 µM | 360,000 tested, 0.37% active; in the data active means inhibition above about 19%;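 further: recombinant mutant TCR 2C K166C tagged with TAMRA read by polarization; 0% = receptor in buffer alone and 100% = receptor with positive control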
TDP2 absorb – blocks human TDP2 phosphodiesterase activity | inhibition, % at 12.8 µM | recombinant TDP2, T5PNP hydrolysis, p-nitrophenol absorbance 415 nm | 370,000 tested, 0.34% active | AID 720702 | O95551;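 active means inhibition above the mean of all tested compounds plus 3 SD, set per campaign, cut at about 25% in these data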;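 further: 0% = DMSO with enzyme and 100% = buffer with substrate but no TDP2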
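System – recombinant human TDP2 · Quantity – TDP2 enzyme at 120 nM final · Doses – single concentration, 12.8 µM nominal, with 1% DMSO · Incubation – 2 h at 37 °C · Measured by – epi absorbance of p-nitrophenol freed from T5PNP by hydrolysis · Read-out – % inhibition relative to enzyme-containing and enzyme-free wells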
LEDGF integ inh – blocks HIV-1 LEDGF/p75-dependent DNA integration; TR-FRET IN-LEDGF/p75 DNA integration, Eu/Cy5; inhibition, % at 3.7 µM; 370,000 tested, 0.64% active; AID 743269;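 active means inhibition above the screen-wide mean plus 3 SD, cut at about 13% in these data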;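 further: signal is the Cy5 over europium emission ratio at 671 and 618 nm; 0% = plate median of compound wells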
ABHD4 inh – inhibits mouse alpha/beta hydrolase domain 4; 370,000 tested, 0.54% active; Q8VD66; purified mABHD4, FP-Rh probe fluorescence polarization; AID 720543; inhibition, % at 8.92 µM;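 active means inhibition exceeding the mean over every tested compound plus 3 SD, cut at about 30% in these data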;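 further: 0% = plate median of compound wells and 100% = S159A mutant with DMSO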
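Assay system: Wild-type mouse ABHD4 protein | Medium: HEPES pH 7.0 buffer, 150 mM NaCl, 0.01% Pluronic F-127 | Incubation: Enzyme–compound pre-incubation 45 min, then probe 60 min, both 25 °C | Technique: Fluorescence polarization with parallel and perpendicular emission, 525/598 nm | Evaluation: % inhibition of FP-Rh probe binding versus controls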
PG9 binder – PG9 antibody binding by small molecule; inhibition, % at 6.7 µM; TR-FRET gp120-PG9 antibody binding; AID 624416; 360,000 tested, 0.43% active; in the data active means inhibition above about 8.5%
DDE Tn7 FP inh – disrupts Tn7 cyclic peptide binding to fibrin D-Dimer-E complex; 370,000 tested, 0.13% active; P02675; inhibition, % at 8.3 µM; FP displacement of FITC-Tn7 peptide from fibrin DD(E); 0% = median of compound wells per plate;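 active means inhibition above the mean of compounds falling within the control limits plus 3 SD of them, cut at about 14% in these data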;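 further: 0% = plate median of compound wells and 100% = 10 µM Aha-Tn7 peptide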
Target sequence (P02675 whole entry, looked up): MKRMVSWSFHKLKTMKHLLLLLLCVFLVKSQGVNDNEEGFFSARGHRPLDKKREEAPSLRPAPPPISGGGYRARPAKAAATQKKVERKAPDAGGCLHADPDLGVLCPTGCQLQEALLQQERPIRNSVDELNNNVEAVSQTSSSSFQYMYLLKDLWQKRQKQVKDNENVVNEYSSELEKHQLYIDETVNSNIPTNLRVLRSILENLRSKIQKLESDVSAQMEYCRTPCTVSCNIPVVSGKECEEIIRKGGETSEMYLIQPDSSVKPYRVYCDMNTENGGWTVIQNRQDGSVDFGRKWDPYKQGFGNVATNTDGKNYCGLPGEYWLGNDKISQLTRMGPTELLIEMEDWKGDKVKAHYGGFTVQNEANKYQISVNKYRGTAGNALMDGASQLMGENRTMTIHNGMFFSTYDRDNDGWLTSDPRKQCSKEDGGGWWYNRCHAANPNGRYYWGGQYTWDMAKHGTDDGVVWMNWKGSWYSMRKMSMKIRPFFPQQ
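Test system – human fibrin DD(E) · Times – 10 min preincubation, 3 h with tracer, room temperature · Detection – fluorescence polarization of the labelled Tn7 tracer · Measure – percent inhibition normalized to high-control wells · Benchmarks – high control wells with 10 µM unlabelled Aha-Tn7 peptide (full inhibition) · Repeats – singlicate testing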
SIAE primary – blocks human sialic acid acetylesterase; 370,000 tested, 0.69% active; SIAE FP-Rh probe binding, fluorescence polarization; Q9HAT2; inhibition, % at 9.66 µM;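 active means inhibition above a cutoff: mean of compounds within the control limits plus 3 SD of those, cut at about 17% in these data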;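 further: 0% = plate median of compound wells and 100% = probe without SIAE protein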
UHRF1 binding – blocks human UHRF1 binding to methylated DNA; 370,000 tested, 0.75% active; inhibition, % at 4.4 µM; AID 687016; Q96T88; UHRF1 binding to methylated oligo, TR-FRET; in the data active means inhibition above about 21%;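 further: UHRF1 SRA domain binding a hemimethylated CpG hairpin DNA probe; 0% = median of test compound wells and 100% = reference inhibitor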
Numbers without * were called inactive.

CC1(O)CC(c2ccc(Cl)cc2)=NN1C(=O)c1ccc([N+](=O)[O-])cc1 (stereo unspecified) was read as PRMT1 inh -2, TCR-CD3 inh 18, TDP2 absorb 7, LEDGF integ inh 3, ABHD4 inh 1, PG9 binder -0.7, DDE Tn7 FP inh -1, SIAE primary 17 and UHRF1 binding 0.
Screening CN1c2ccccc2Oc2c(c(=O)n(C)c(=O)n2C)C1c1cccc([N+](=O)[O-])c1 (stereo unspecified) returned PRMT1 inh 0, TCR-CD3 inh -5, TDP2 absorb -4, LEDGF integ inh 0, ABHD4 inh 1, PG9 binder -2.4, DDE Tn7 FP inh -3, SIAE primary 0 and UHRF1 binding 3.
Screening CC1CN(C(=O)c2cc3cc(Br)ccc3[nH]2)CC(C)O1 (stereo unspecified) returned PRMT1 inh 3, TCR-CD3 inh -1, TDP2 absorb -8, LEDGF integ inh -4, ABHD4 inh 9, PG9 binder 0.9, DDE Tn7 FP inh 4, SIAE primary -15 and UHRF1 binding -1.
N#Cc1cnn2cc(-c3ncc(C(F)(F)F)cc3Cl)cnc12 was read as PRMT1 inh 2, TCR-CD3 inh -6, TDP2 absorb -1, LEDGF integ inh 11, ABHD4 inh -3, PG9 binder 0.6, DDE Tn7 FP inh -4, SIAE primary 1 and UHRF1 binding 2.
Nc1ccc2nc(Cc3ccccc3)[nH]c2c1 was read as PRMT1 inh 0, TCR-CD3 inh 1, TDP2 absorb 1, LEDGF integ inh 1, ABHD4 inh 12, PG9 binder -3.7, DDE Tn7 FP inh -9, SIAE primary 7 and UHRF1 binding 1.
`Cc1nc(NC(=O)CN2CCN(c3ccccc3F)CC2)sc1C(=O)N(C)C` gave PRMT1 inh 3, TCR-CD3 inh 6, TDP2 absorb -10, LEDGF integ inh 0, ABHD4 inh -7, PG9 binder 1.1, DDE Tn7 FP inh 1, SIAE primary -5 and UHRF1 binding 2.
For Cc1cc(-c2csc(N)n2)c(C)n1C the results were PRMT1 inh 27*, TCR-CD3 inh 10, TDP2 absorb 8, LEDGF integ inh 22*, ABHD4 inh 23, PG9 binder 2.6, DDE Tn7 FP inh 4, SIAE primary 16 and UHRF1 binding 6.
`CC(NS(=O)(=O)c1ccc([N+](=O)[O-])cc1)C(=O)NN` (stereo unspecified) gave PRMT1 inh 0, TCR-CD3 inh 6, TDP2 absorb 1, LEDGF integ inh 0, ABHD4 inh -5, PG9 binder 2.1, DDE Tn7 FP inh 6, SIAE primary 4 and UHRF1 binding -1.
For COC(=O)c1ccc(OC(=O)c2nn(C)cc2Cl)c(OC)c1 the results were PRMT1 inh -3, TCR-CD3 inh -1, TDP2 absorb -1, LEDGF integ inh 2, ABHD4 inh -129, PG9 binder -1.6, DDE Tn7 FP inh 6, SIAE primary 9 and UHRF1 binding 2.
For Cc1c(Cc2c(C)n(C)n(-c3ccccc3)c2=O)c(=O)n(-c2ccccc2)n1C the results were PRMT1 inh 0, TCR-CD3 inh 2, TDP2 absorb 7, LEDGF integ inh -2, ABHD4 inh 3, PG9 binder -2.4, DDE Tn7 FP inh 7, SIAE primary -1 and UHRF1 binding 1.
Screening COc1ccc(C2NC(c3ccc(OC)c(OC)c3OC)C(C)C(=O)C2C)c(OC)c1OC (stereo unspecified) returned PRMT1 inh 2, TCR-CD3 inh -1, TDP2 absorb 6, LEDGF integ inh -2, ABHD4 inh 3, PG9 binder 0.8, DDE Tn7 FP inh 0, SIAE primary 4 and UHRF1 binding -2.
Screening CCCN(CC)c1ncnc2[nH]ncc12 returned PRMT1 inh -2, TCR-CD3 inh 1, TDP2 absorb -3, LEDGF integ inh 3, ABHD4 inh 2, PG9 binder -1.0, DDE Tn7 FP inh -10, SIAE primary -2 and UHRF1 binding -3.

5 entries from above, arranged by molecular weight, ascending.
`CC(NS(=O)(=O)c1ccc([N+](=O)[O-])cc1)C(=O)NN` (stereo unspecified) gave PRMT1 inh 0, TCR-CD3 inh 6, TDP2 absorb 1, LEDGF integ inh 0, ABHD4 inh -5, PG9 binder 2.1, DDE Tn7 FP inh 6, SIAE primary 4 and UHRF1 binding -1.
N#Cc1cnn2cc(-c3ncc(C(F)(F)F)cc3Cl)cnc12 was read as PRMT1 inh 2, TCR-CD3 inh -6, TDP2 absorb -1, LEDGF integ inh 11, ABHD4 inh -3, PG9 binder 0.6, DDE Tn7 FP inh -4, SIAE primary 1 and UHRF1 binding 2.
CC1(O)CC(c2ccc(Cl)cc2)=NN1C(=O)c1ccc([N+](=O)[O-])cc1 (stereo unspecified) was read as PRMT1 inh -2, TCR-CD3 inh 18, TDP2 absorb 7, LEDGF integ inh 3, ABHD4 inh 1, PG9 binder -0.7, DDE Tn7 FP inh -1, SIAE primary 17 and UHRF1 binding 0.
Screening CN1c2ccccc2Oc2c(c(=O)n(C)c(=O)n2C)C1c1cccc([N+](=O)[O-])c1 (stereo unspecified) returned PRMT1 inh 0, TCR-CD3 inh -5, TDP2 absorb -4, LEDGF integ inh 0, ABHD4 inh 1, PG9 binder -2.4, DDE Tn7 FP inh -3, SIAE primary 0 and UHRF1 binding 3.
Screening COc1ccc(C2NC(c3ccc(OC)c(OC)c3OC)C(C)C(=O)C2C)c(OC)c1OC (stereo unspecified) returned PRMT1 inh 2, TCR-CD3 inh -1, TDP2 absorb 6, LEDGF integ inh -2, ABHD4 inh 3, PG9 binder 0.8, DDE Tn7 FP inh 0, SIAE primary 4 and UHRF1 binding -2.

Fetched by structure from the entries so far:
For Cc1c(Cc2c(C)n(C)n(-c3ccccc3)c2=O)c(=O)n(-c2ccccc2)n1C the results were PRMT1 inh 0, TCR-CD3 inh 2, TDP2 absorb 7, LEDGF integ inh -2, ABHD4 inh 3, PG9 binder -2.4, DDE Tn7 FP inh 7, SIAE primary -1 and UHRF1 binding 1.
Screening CC1CN(C(=O)c2cc3cc(Br)ccc3[nH]2)CC(C)O1 (stereo unspecified) returned PRMT1 inh 3, TCR-CD3 inh -1, TDP2 absorb -8, LEDGF integ inh -4, ABHD4 inh 9, PG9 binder 0.9, DDE Tn7 FP inh 4, SIAE primary -15 and UHRF1 binding -1.

Next section:
Cc1cc(C#Cc2c(-c3ccccc3)n(C)c3ccccc23)ccc1F was read as PRMT1 inh -1, TCR-CD3 inh 7, TDP2 absorb -12, LEDGF integ inh 0, ABHD4 inh -4, PG9 binder -2.0, DDE Tn7 FP inh -1, SIAE primary -15 and UHRF1 binding -2.
Screening CC(C)(C)NC(=O)CSc1nc(O)cc(=O)[nH]1 returned PRMT1 inh 6, TCR-CD3 inh -5, TDP2 absorb 0, LEDGF integ inh -2, ABHD4 inh -2, PG9 binder 0.5, DDE Tn7 FP inh 0, SIAE primary 6 and UHRF1 binding 3.
For CCCn1c(SCC(=O)NCC)nc2sc3c(c2c1=O)CCC3 the results were PRMT1 inh 12, TCR-CD3 inh -4, TDP2 absorb -16, LEDGF integ inh -8, ABHD4 inh -6, PG9 binder 0.9, DDE Tn7 FP inh -1, SIAE primary -2 and UHRF1 binding 2.
`COc1ccc(/C=N/NC(=O)c2ccc(NS(=O)(=O)c3cccs3)cc2)cc1` gave PRMT1 inh -1, TCR-CD3 inh -3, TDP2 absorb -16, LEDGF integ inh 3, ABHD4 inh -6, PG9 binder -1.9, DDE Tn7 FP inh -8, SIAE primary -7 and UHRF1 binding -2.
Cc1cccc(N2C(=O)C3CCCN3C2=S)c1 (stereo unspecified) was read as PRMT1 inh 6, TCR-CD3 inh 21*, TDP2 absorb 2, LEDGF integ inh -1, ABHD4 inh 2, PG9 binder -0.2, DDE Tn7 FP inh 1, SIAE primary -4 and UHRF1 binding 1.
`Cc1nn(Cc2ccccc2Cl)c(C)c1C(=O)Nc1nnc(C2CC2)s1` gave PRMT1 inh -3, TCR-CD3 inh 1, TDP2 absorb 0, LEDGF integ inh 0, ABHD4 inh -4, PG9 binder -0.2, DDE Tn7 FP inh 5, SIAE primary -5 and UHRF1 binding -2.
CC(C)(CN1CCC(Cc2ccccc2)CC1)NS(=O)(=O)c1ccccc1 was read as PRMT1 inh 3, TCR-CD3 inh 0, TDP2 absorb 11, LEDGF integ inh -3, ABHD4 inh 13, PG9 binder -0.3, DDE Tn7 FP inh -1, SIAE primary 0 and UHRF1 binding 5.
For O=C(C1=COCCO1)N1CCN(C(c2ccccc2)c2ccccc2)CC1 the results were PRMT1 inh 0, TCR-CD3 inh -1, TDP2 absorb -1, LEDGF integ inh -2, ABHD4 inh 1, PG9 binder -0.1, DDE Tn7 FP inh 0, SIAE primary 1 and UHRF1 binding 4.
For O=C(NC(=S)N1CCCc2ccccc21)c1ccc([N+](=O)[O-])cc1 the results were PRMT1 inh 1, TCR-CD3 inh -7, TDP2 absorb -2, LEDGF integ inh 1, ABHD4 inh 17, PG9 binder -0.5, DDE Tn7 FP inh 1, SIAE primary 9 and UHRF1 binding 0.
Screening C[C@H](NC(=O)c1nc[nH]c1C(=O)NCC(=O)OC(C)(C)C)C(=O)OCc1ccccc1 returned PRMT1 inh -2, TCR-CD3 inh 3, TDP2 absorb 3, LEDGF integ inh 2, ABHD4 inh -12, PG9 binder -0.1, DDE Tn7 FP inh 5, SIAE primary 1 and UHRF1 binding 1.
Screening COc1ccc(/C=C/C(=O)OCC(=O)Nc2cccc(C(C)=O)c2)cc1 returned PRMT1 inh 0, TCR-CD3 inh 0, TDP2 absorb 1, LEDGF integ inh 1, ABHD4 inh -1, PG9 binder 0.1, DDE Tn7 FP inh 1, SIAE primary -3 and UHRF1 binding 5.
`O=C(NC(=S)NNC(=O)c1ccccc1O)c1ccc([N+](=O)[O-])cc1` gave PRMT1 inh 4, TCR-CD3 inh 19*, TDP2 absorb -14, LEDGF integ inh -3, ABHD4 inh 27, PG9 binder 0.4, DDE Tn7 FP inh 8, SIAE primary 10 and UHRF1 binding -2.
For NNC(=O)CNS(=O)(=O)c1ccc([N+](=O)[O-])cc1 the results were PRMT1 inh 3, TCR-CD3 inh 9, TDP2 absorb -7, LEDGF integ inh 2, ABHD4 inh 3, PG9 binder -1.2, DDE Tn7 FP inh -2, SIAE primary -5 and UHRF1 binding -1.
For COc1ccccc1N1CN(CCc2ccccc2)CNC1=S the results were PRMT1 inh -5, TCR-CD3 inh 3, TDP2 absorb 14, LEDGF integ inh 0, ABHD4 inh -2, PG9 binder -0.2, DDE Tn7 FP inh -2, SIAE primary 8 and UHRF1 binding -2.

A portion of the library, so the mix of outcomes need not match the whole.
